Screening data deposited in PubChem by National Center for Advancing Translational Sciences (NCATS).
Sfp PPTase inh: Sfp phosphopantetheinyl transferase inhibition | Biochemical Sfp PPTase activity, qHTS | Potency, µM, without a hit: max response, negative = inhibition, hits mostly inhibitors | 310,000 compounds, 3.5% hits; active means well fitted inhibition curve with a large enough effect; inconclusive means small, poorly fitted or top-dose-only effect, or another doubt; inactive means no such curve, though single readings can be large or run the other way;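 further: the enzyme is Sfp with the accession as filed and its product quenches rhodamine fluorescence; potency means the concentration at half of the fitted maximal effect; 0% = enzyme reaction without inhibitor and -100% = no enzyme wells; top concentration of the series not given in the record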
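Buffer: 50 mM Hepes-Na pH 7.6, 10 mM MgCl2, 0.01% Nonidet P-40, 0.01% BSA. Enzyme 15 nM, pre-exposed to compound 15 min; substrates then added and fluorescence change tracked over 30 min.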
Menin MLL FP FL: inhibitors of human menin-MLL interaction, wild-type MLL peptide; FP activity change, % at 61.4 µM; 290,000 tested, under 10 active; Fluorescence polarization, fluorescein-MLL peptide displacement from menin; inconclusive = falling polarisation curve, or a change in total fluorescence; inactive = total fluorescence flat and polarisation flat or rising; no compound was filed as active; the % refers to the polarisation; negative = inhibition;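 further: % of control where 0% means no effect; inhibitors lower the polarisation; unlabelled MLL peptide was the positive control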
ClpP mod: qHTS Assay for Activators of ClpP | Potency, µM (highest dose often 57.5 µM), for inactives: at the top dose activity change, negative = active | AID 651965, 2013 | purified B. subtilis ClpP, FRET peptide cleavage, 20 min | 340,000 compounds, 1.9% hits | ATP-dependent Clp protease proteolytic subunit (Bacillus subtilis (strain 168)), P80244; active = well fitted falling curve with a large enough effect; inconclusive = small, poorly fitted or top-dose-only effect; inactive = no such curve, though single readings can be large or run the other way; further: potency means the concentration at half of the fitted maximal effect; the source files actives as falling curves though it sought activators and does not explain the sign; nearly all actives have a fitted effect of over 65% in size; many hits overshoot -100%
Target sequence (P80244 whole entry, looked up): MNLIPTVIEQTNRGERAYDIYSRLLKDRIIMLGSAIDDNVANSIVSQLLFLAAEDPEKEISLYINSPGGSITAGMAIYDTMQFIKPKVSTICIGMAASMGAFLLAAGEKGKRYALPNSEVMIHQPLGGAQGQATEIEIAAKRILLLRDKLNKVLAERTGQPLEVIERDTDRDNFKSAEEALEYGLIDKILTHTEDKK
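Buffer: 100 mM Tris/HCl pH8, 100 mM KCl, 0.05% low protease BSA, 2.5% glycerol, 0.01% Tween-20. ClpP 10 microg/mL final; 20 min RT; delta FRET normalized to ADEP and DMSO controls.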
TRPML1 inh: inhibitors of human TRPML1 channel; Q9GZU1; TRPML1-inducible cells, Ca2+ dye fluorescence, FDSS; stronger effect = lower value; inhibition of EC80 agonist-evoked calcium signal; activity change, negative = inhibition, % (no concentration beside the values); 390,000 compounds, 0.02% hits; AID 624415; in the data active means activity change below about -50%; inconclusive means about -30% to -50%; inactive means above about -30%;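 further: stimulus is agonist 54-4 at its EC80 concentration; on the % scale 0 is the no-effect control and ±100 the full control effect; compound concentration not given in the record; the text of the record puts the active cut at -80%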
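Calcium fluorescence in TRPML1-DL cells induced overnight with Tet: a 110 s read after compound pin addition, then a 110 s antagonist read after challenge with 54-4 at 4 uM final (EC80).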
gsp ag: agonists of gsp mutant (McCune-Albright syndrome). AID 624287. 340,000 compounds, 0.13% hits. gsp mutant cells, cAMP HTRF, 30 min; control for the full effect not named in the record. Potency, µM (highest dose often 76.9 µM), inactives show top-dose activation (cAMP increase), usual class: activators; active = well fitted activation curve with a large enough effect; inconclusive = small, poorly fitted or top-dose-only effect, or another doubt; inactive = no such curve, though single readings can be large or run the other way; cell line not stated here;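 further: phosphodiesterase inhibitor Ro 20-1724 added with compounds to block cAMP breakdown; potency means the concentration at half of the fitted maximal effect; nearly all actives have a fitted effect of over 60% in size; about a fifth of the inactives were tested at one dose only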
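Cells in DMEM/10% FBS with G418 were pretreated with compounds in DMSO plus […] (300 uM stock) for 30 min at 37C. cAMP was measured by HTRF (cAMP-d2 plus anti-cAMP antibody-K) after 30 min at room temperature.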
gsp antag: gsp mutant antagonism. gsp-mutant cells, cAMP HTRF, 30 min; control for the full effect not named in the record. Potency, µM (highest dose often 76.9 µM), for the others: at the highest dose activity change, negative = inhibition, hits mostly inhibitors. 340,000 compounds, 0.4% hits. AID 624288; active = falling curve of any shape with a large fitted effect; inconclusive = falling curve, mostly with a smaller effect; inactive = flat or rising curve; cell line not stated here;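 further: intracellular cAMP measured with PDE inhibitor Ro 20-1724 present during compound exposure; potency means the concentration at half of the fitted maximal effect; on the % scale 0 is the no-effect control and ±100 the full control effect; nearly all actives have a fitted effect of over 65% in size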
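HTRF cAMP read-out (cAMP-d2 plus anti-cAMP antibody-K in lysis buffer, 30 min RT). Before lysis, cells are exposed to compounds with […] for 30 min at 37C in DPBS containing Ca/Mg, BSA and Tween 20.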
TRPV1 PAM: enhances activation of the human vanilloid receptor TRPV1; Q8NER1; TRPV1-expressing cells, Fluo-8 calcium influx, capsaicin EC20 potentiation; host cell line not named in the record; control for the full effect not named in the record; potentiation, % at 8.33 µM; 320,000 compounds, 0.02% hits; AID 540277; active means potentiation above 80%; inconclusive means 30% to 80%; inactive means below 30%; further: 0% is about no effect
Target sequence (Q8NER1 whole entry, looked up): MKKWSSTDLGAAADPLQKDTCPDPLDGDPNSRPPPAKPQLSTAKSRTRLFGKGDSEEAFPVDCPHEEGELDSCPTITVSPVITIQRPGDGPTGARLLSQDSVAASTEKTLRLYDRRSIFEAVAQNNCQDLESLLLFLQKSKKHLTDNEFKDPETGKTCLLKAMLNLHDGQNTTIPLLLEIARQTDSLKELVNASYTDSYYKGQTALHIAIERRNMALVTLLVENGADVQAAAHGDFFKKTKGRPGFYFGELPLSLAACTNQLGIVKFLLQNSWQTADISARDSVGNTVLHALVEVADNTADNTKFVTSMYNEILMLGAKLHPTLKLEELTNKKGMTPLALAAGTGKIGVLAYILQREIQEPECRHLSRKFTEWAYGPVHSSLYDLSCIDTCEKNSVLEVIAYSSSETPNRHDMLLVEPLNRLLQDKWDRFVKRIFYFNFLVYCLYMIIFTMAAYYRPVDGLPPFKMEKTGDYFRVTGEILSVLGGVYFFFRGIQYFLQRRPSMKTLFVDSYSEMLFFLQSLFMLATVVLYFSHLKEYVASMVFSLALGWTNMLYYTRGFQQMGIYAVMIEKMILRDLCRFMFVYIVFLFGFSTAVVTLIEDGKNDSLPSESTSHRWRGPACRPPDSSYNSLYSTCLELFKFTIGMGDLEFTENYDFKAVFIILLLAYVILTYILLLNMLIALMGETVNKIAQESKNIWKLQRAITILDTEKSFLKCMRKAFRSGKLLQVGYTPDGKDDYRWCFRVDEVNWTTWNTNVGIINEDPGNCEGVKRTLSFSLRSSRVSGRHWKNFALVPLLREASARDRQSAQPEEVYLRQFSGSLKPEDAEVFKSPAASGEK
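Cells expressing TRPV1 were dye-loaded with Fluo-8 and read kinetically: 10 s baseline, 3 min after compound (agonist portion), then 2 min after EC20 capsaicin (allosteric enhancer portion). Calcium-bound dye fluorescence at 480/520 nm.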
An asterisk follows results filed as active; u = inconclusive; x = not tested or not shown; [ ] = dose if it differs, or a comment. Some of the compounds tested (hit frequency here may not be typical).

smiles | Sfp PPTase inh | Menin MLL FP FL | ClpP mod | TRPML1 inh | gsp ag | gsp antag | TRPV1 PAM
Nc1c(C(=O)OC2CCCCC2)c2nc3ccccc3nc2n1CC1CCCO1 (stereo not given) | -3% | 0.9 | 45% | -2 | -29% | u | -3
O=C(O)COc1ccc(/C=C2/SC(=S)N(Cc3ccccc3)C2=O)cc1 | 9% | 7.1 | 1.5% | x | -55%[inhibitor] | -7% | 8
O=C(C1CC(c2ccc(Cl)c(Cl)c2)=NO1)N1CCC2(CC1)OCCO2 (stereo not given) | -7% | -2.9 | -0.7% | 1 | -7% | -13% | 7
COc1ccc(NC(=O)c2c(C)nn(Cc3ccccc3Cl)c2Cl)cc1Cl | -15% | 4.0 | 2.5% | 20 | 1%[15.4 µM] | -5% | 4
CCCOC(=O)C1C2CCC(O2)C1C(=O)O (stereo not given) | x | x | x | 10 | u | 8% | x
CN1OC[C@@H]2CN[C@H](c3ccc(Br)cc3)C[C@@H]21 | x | x | 0.0% | -4 | -46%[inhibitor] | x | x
O=C(c1cccn2c(=O)c3cc(Cl)ccc3nc12)N1CCC2(CC1)OCCO2 | -15% | 3.4 | 25µM* | 3 | u | 6% | 0
c1ccc(P(c2ccccn2)c2ccccn2)cc1 | -9% | 2.5 | 0.3% | 7 | u | 6% | -6
CCCCn1c(=O)c(C(=O)NCCc2ccccc2)c(O)c2ccccc21 | -9% | 8.6 | u | -25 | 1% | 2% | 8
Cc1cccc(NC2=NCCCS2)c1C | 10% | 2.0 | -1.8% | 21 | -13% | 2% | -4
CC1=CC(=C2C(=O)NC(=S)NC2=O)C=C(C(F)(F)F)N1CCc1ccccc1 | 22% | 0.2 | x | x | x | x | 5
CCOC(=O)C1=C(NC(=S)NC(=O)c2ccccc2)c2ccccc2CC12CCCC2 | 9% | 7.4 | x | 20 | 6%[15.4 µM] | -1% | -3
COC(=O)C(O)(c1ccc(NC(=O)c2cccs2)c(C)c1)C(F)(F)F (stereo not given) | 8% | -0.1 | 0.0% | 0 | 2%[15.4 µM] | 7% | -3
Fc1ccccc1CN1CCN(c2ccc(Cl)cc2)CC1 | 10% | 0.9 | 0.1% | x | 25% | 8% | -9
O=C(c1cc2ccccn2n1)N1CCC2(CC1)OCCO2 | 1% | -0.2 | -9.5% | 3 | 27% | 4% | 9
Cc1[nH]c2ccccc2c1CCNCc1cccnc1 | 7% | -3.6 | -1.2% | -4 | 3% | 9% | -4
CCc1cc(=O)oc2c(C)c(OCC(=O)N3C[C@H]4C[C@@H](C3)c3cccc(=O)n3C4)ccc12 | 21% | -11 | 4.8% | x | x | 3% | 3
CC1([N+](=O)[O-])COP(=O)(Nc2cccc(Cl)c2)OC1 (stereo not given) | x | x | -0.8% | 9 | -85%[inhibitor] | 6% | x
CC(C(N)=O)N1CC(c2ccccc2)CC1=O (stereo not given) | 11% | 0.5 | -2.2% | 9 | 0% | -9% | 2
CN1CC(C(=O)c2ccccc2)C(c2ccccc2)C1 (stereo not given) | -9% | 0.2 | -21% | 11 | -13%[15.4 µM] | 16% | 18
O=C(CCn1c(=O)oc2ccccc21)N1CCN(c2ccccc2Cl)CC1 | 1% | -0.8 | 0.0% | 0 | -38%[inhibitor] | 22% | 12
O=C1/C(=C/c2ccccc2Cl)N2CCC1CC2 | -4% | 2.4 | -0.8% | x | 20% | -13% | -12
O=c1c2ccccc2nc(CSc2ncnc3nc[nH]c23)n1-c1ccccc1 | 50µM* | 0.9 | -2.9% | 7 | -9% | 20% | 7
C#CC[N+]1(C)C2CCC1CC(O)C2 (stereo not given) | 21% | 1.1 | 2.1% | -12 | -36%[inhibitor] | -15% | -2
S=C=Nc1cccc(C2(N3CCCCC3)CCCCC2)c1 | -7% | u | -0.6% | -18 | x | 4% | 3
O=C(c1ccc2c(c1)ncn2-c1ccc(F)cc1F)N1CCC2(CC1)OCCO2 | 5% | -1.6 | x | 15 | 14%[15.4 µM] | 9% | 1
O=C(Cc1ccccc1)OCCN1CCOCC1 | 9% | 2.0 | -5.4% | 18 | -25% | 10% | 19
O=C1NC(=O)N(Cc2ccccc2)C(=O)/C1=C/N1CCCc2ccccc21 | -26% | u | 0.9% | -18 | 4% | -5% | -11
COC(=O)c1c(C)[nH]c(C(=O)C(Cc2ccccc2)N(C)C)c1C (stereo not given) | 19% | 5.1 | -1.2% | -2 | 7% | -1% | 0
CNCCCc1ccccc1 | 16% | 3.3 | -3.4% | -6 | 12% | -10% | 3
CCc1nc2ccccc2c(=O)n1-c1ccc2ccccc2c1 | 1% | 1.7 | -8.9% | 11 | -36%[inhibitor] | 0% | 13
COc1ccc(N/N=C/c2c(O)n(-c3ccc(C)c(C)c3)c(=O)[nH]c2=O)cc1 | -25% | 7.5 | 1.2% | 3 | -46%[inhibitor] | -8% | 3
CCN1CCN(c2ccc(NC(C)=O)cc2Cl)CC1 | 11% | 3.0 | 0.5% | 21 | u | 13% | 5
CCSc1nnc([C@@H](N)Cc2c[nH]c3ccccc23)o1 | 9% | 1.3 | -2.2% | -1 | -40%[inhibitor] | -1% | 5
O=c1[nH]c(=S)n(-c2ccccc2Cl)c(O)c1C=NCCN1CCNCC1 | 9% | 9.0 | -0.9% | x | 2% | 9% | 5
CN1CCc2nc(SCC(=O)OC(C)(C)C)c(C#N)cc2C1 | -14% | u | -27% | 9 | 0% | 4% | -3
CN1C(=O)C(=Cc2cc([N+](=O)[O-])ccc2N2CCCCC2)C(=O)N(C)C1=O | -5% | -4.6 | x | -9 | 6%[15.4 µM] | 4% | -6
O/N=C1\CCC2CN(C3CCCCC3)CC2C1 (stereo not given) | 4% | -1.0 | 0.9% | 1 | 1% | 7% | -24
CC(C)N1OC2CC1c1nc3ccccc3n1C2 (stereo not given) | 9% | u | -29% | 1 | x | -3% | -5
COC(=O)C1=C(c2ccc(F)cc2F)C[C@@H]2CC[C@H]1N2C(=O)NCc1ccc(F)cc1 | x | x | -0.8% | -9 | 2% | -11% | -20
O=c1[nH]c(=O)n(-c2ccccc2)c(O)c1/C=C/C=Nc1ccccc1 | 6% | u | 1.8% | 2 | -10% | -2% | 14
O=C1CN=C(c2ccccc2)c2ccccc2N1 | 2% | -0.1 | -0.2% | -13 | -26% | -13% | -39
CC(=O)Nc1ccc(OC(=O)N2CCCCC2)cc1 | 14% | 0.1 | -2.3% | 9 | -11% | 5% | 0
CN(C)C1=C(C#N)C(c2ccccc2)=NP(N(C)C)(N(C)C)=N1 | 12% | -1.4 | 0.7% | -3 | 25% | -9% | -4
CN(C)c1ccc(/C=C2/C(=N\O)C3CCN2CC3)cc1 | 9% | -3.6 | x | 13 | u | -11% | -2
CCCN(CCC)C1CCc2ccc(O)cc2C1 (stereo not given) | 17% | 2.9 | 0.0% | -3 | x | -3% | 7
COc1ccccc1NC1=NCCS1 | -1% | -1.4 | -3.2% | 0 | 0% | 7% | 0
Cc1cc(NC(=O)CCC(=O)N2CCC3(CC2)OCCO3)no1 | 7% | 4.8 | -4.5% | -4 | 13% | 11% | 11
CC/C(=N\N1CCN(C)CC1)c1c(O)[nH]c(=O)[nH]c1=O | 12% | -0.5 | 0.3% | 38 | -28% | 5% | -7
CS(=O)(=O)NNP(=O)(NNS(C)(=O)=O)NC(=O)c1ccc(Br)cc1 | 7% | 1.0 | -0.3% | -19 | 34% | 10% | 2
CC12CC[C@H]3[C@@H](CCC4(O)C[C@H](O)CCC34/C=N/NC(=O)c3ccccc3[N+](=O)[O-])C1(O)CCC2C1=CC(=O)OC1 (stereo not given in full) | 5% | -3.8 | x | -16 | 3%[15.4 µM] | 6% | -7
O=C(CN1CCOCC1)c1ccc2cc[nH]c2c1 | 50µM* | 4.3 | -0.9% | 11 | u | 0% | -7
O=C(CN1CC(c2ccccc2)CC1=O)Nc1cccc(F)c1 (stereo not given) | -8% | 0.2 | -3.0% | 1 | 7% | 5% | 20
COc1ccc(C2CN(C)CC2C(=O)c2ccc(F)cc2)cc1Cl (stereo not given) | -5% | 0.4 | x | 19 | -1%[15.4 µM] | 9% | -7
O=C(NCc1ccc(C(=O)N2CCC3(CC2)OCCO3)cc1)c1ccc2c(c1)OCO2 | 14% | 0.3 | -8.6% | 5 | -18% | 3% | 29
Cc1cccc(C)c1OC(=O)Cc1ccccc1 | 8% | 0.3 | x | -21 | -2%[15.4 µM] | u | 2
CCN1CCN(CC(c2ccccc2)c2ccccc2)CC1 | -21% | -0.9 | 1.0% | 11 | -2%[15.4 µM] | 10% | -10
CCCC(=O)N(C)C1=Nc2ccc(Cl)cc2C(c2ccccc2)=[N+]([O-])C1 | 16% | 7.5 | -1.6% | 13 | u | -10% | -13
CCCNC(=O)N1C2CCC1CC(O)(c1cccnc1)C2 (stereo not given) | 14% | 4.4 | -0.2% | -4 | 17% | 0% | 6
Cc1ccc2c(CN3CC=C(c4ccccc4)CC3)cc(=O)oc2c1C | -5% | -8.9 | -11% | 16 | 4% | 2% | -2

The listing continues:
smiles | Sfp PPTase inh | Menin MLL FP FL | ClpP mod | TRPML1 inh | gsp ag | gsp antag | TRPV1 PAM
Cc1cccc(-n2c(C)nc3ccc(Cl)cc3c2=O)c1 | 3% | 1.0 | -27% | -24 | -6%[15.4 µM] | -2% | -3
CCn1c(O)c(C=NCc2cccs2)c(=O)n(CC)c1=S | -4% | 5.5 | 1.8% | -8 | u | u | 10
Cc1ccc(CCP(=O)(O)CN2CCOCC2)cn1 | 20% | 3.2 | -0.8% | -1 | 6% | 3% | -5
Cc1ccc2c(c1)C1CN(C)CCC1N2C(=O)/C(C#N)=C/c1ccc2c(c1)OCO2 (stereo not given) | -10% | 0.4 | x | -2 | u | 2% | -37
CC(=O)NC1=C(N2CC2C)C(=O)C(NC(C)=O)=C(N2CC2C)C1=O (stereo not given) | x | x | 1.6% | -1 | -1%[15.4 µM] | -21% | x
